# Rango release inh = prevents RanGTP from dissociating the Rango-importin beta complex | O95149+P62826 | Biochemical FRET Rango-importin beta, RanGTP-induced dissociation | Potency, µM (top dose mostly 46.1 µM), for inactives: at the top dose activity change, negative = inhibition | 340,000 compounds, 0.071% hits; active means falling FRET ratio curve, often poorly fitted, with flat reads before Ran was added; inconclusive means other falling curves, or compound fluorescence or quenching; inactive means flat or rising ratio curve;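 further: potency means the concentration at half of the fitted maximal effect; % of control where 0% means no effect; nearly all actives have a fitted effect of over 45% in size; -100% = wells without RanGTP and RCC1; the record marks most hits as doubtful in a second field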
#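 Two FRET readings bracket the reaction: one 5 min after compound meets Rango–importin beta, another 45 min after RanGTP-RCC1 (0.6 uM Ran, 0.2 uM RCC1, 2 mM GTP) is added. Only the second defines inhibition.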
# Rango complex inh = prevents formation of the Rango-importin beta complex | Q14974 | Rango CFP/YFP FRET sensor + importin beta, 45 min | Potency, µM (highest dose often 92.2 µM), for inactives: at the highest dose inhibition of complex formation | 340,000 compounds, 0.031% hits | AID 540263; active = rising FRET ratio curve, often small or poorly fitted; inconclusive = mostly compound fluorescence or quenching in the first reads; inactive = flat curves in all reads;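 further: potency means the concentration at half of the fitted maximal effect; 0% = DMSO wells and 100% = buffer wells lacking importin beta; nearly all actives have a fitted effect of over 15% in size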
# Target sequence (Q14974 whole entry, looked up): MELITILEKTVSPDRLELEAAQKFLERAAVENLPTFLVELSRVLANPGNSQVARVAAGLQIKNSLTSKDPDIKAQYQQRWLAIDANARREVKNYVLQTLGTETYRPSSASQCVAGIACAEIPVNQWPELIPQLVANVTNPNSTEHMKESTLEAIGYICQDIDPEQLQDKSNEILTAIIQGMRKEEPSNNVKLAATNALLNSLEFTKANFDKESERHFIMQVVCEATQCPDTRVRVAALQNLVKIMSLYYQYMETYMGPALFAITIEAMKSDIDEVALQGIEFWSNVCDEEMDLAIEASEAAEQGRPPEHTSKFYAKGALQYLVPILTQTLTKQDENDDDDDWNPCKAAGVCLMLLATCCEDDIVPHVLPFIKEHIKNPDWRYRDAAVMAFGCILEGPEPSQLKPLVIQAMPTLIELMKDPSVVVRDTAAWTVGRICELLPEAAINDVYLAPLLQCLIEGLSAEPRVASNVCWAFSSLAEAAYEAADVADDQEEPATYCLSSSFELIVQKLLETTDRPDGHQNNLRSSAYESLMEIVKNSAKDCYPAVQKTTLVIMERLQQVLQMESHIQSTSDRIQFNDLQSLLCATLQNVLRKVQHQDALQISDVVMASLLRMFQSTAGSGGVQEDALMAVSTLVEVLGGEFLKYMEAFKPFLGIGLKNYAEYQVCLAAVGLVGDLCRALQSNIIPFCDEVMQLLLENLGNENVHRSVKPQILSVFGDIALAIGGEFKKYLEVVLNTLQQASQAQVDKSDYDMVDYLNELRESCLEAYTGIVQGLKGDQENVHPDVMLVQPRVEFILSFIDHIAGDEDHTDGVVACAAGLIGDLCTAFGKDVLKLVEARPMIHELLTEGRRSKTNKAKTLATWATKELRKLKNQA
#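 Inhibition scored from the CFP 486 nm/YFP 530 nm FRET ratio 45 min after adding 0.125 microM importin beta to 50 nM Rango biosensor preincubated 5 min with compound (room temperature, PBS with DTT, Tween-20, BSA). No-importin wells as positive control.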
# GLA inh pH 4.5 = inhibitors of human alpha-galactosidase A at pH 4.5 | 230,000 tested, under 10 active | purified enzyme, 4-MU-alpha-Gal fluorescence, pH 4.5 | AID 1467 | activity change, negative = inhibition, % at 105 µM; inconclusive = small, poorly fitted or top-dose-only inhibition, or a rising curve; inactive = flat fitted curve, though single readings scatter; no compound was filed as active;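 further: 0% = full activity with enzyme and -100% = basal without enzyme; dose as in the result columns while the protocol names 77 µM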
# miR-21 FLuc = miR-21 reporter, rising signal. HeLa miR-21 FLuc reporter, luciferase, 48 h. Potency, µM (doses to about 38.3 µM), inactives show at the top dose reporter change, positive = more light. 340,000 tested, under 10 active. AID 2288; active = well fitted rising curve with a large enough effect; inconclusive = small, poorly fitted or top-dose-only effect; inactive = no such curve, though single readings can be large or run the other way;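 further: % of control where 0% means no effect; miR-21 action dims this reporter so a rising signal means less miR-21 action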
#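 HeLa cells endogenously expressing miR-21, stably carrying CMV-driven firefly luciferase with a downstream miR-21 binding site, 2000 cells/well. Titrations up to approximately 40 uM, 48 hours; luciferase luminescence read.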
# The depositor's hits bear a star; ? = inconclusive; . = no result given; & = joins results of further samples. Not all compounds are listed. The share of hits here may be higher or lower than overall.
SMILES,Rango release inh,Rango complex inh,GLA inh pH 4.5,miR-21 FLuc
Cc1ccc(-n2nc(C)c(C3C(C#N)=C(N)OC4=C3C(=O)CCC4)c2Cl)cc1 (stereo not given),.,.,1,8%
COc1ccccc1OCCN(C#N)c1nc(N(C)C)nc(N(C)C)n1,5%,0.5%,-4,0%
COCCN1Cc2cccc(C(=O)N3CCN(c4ccccc4)CC3)c2C1=O,0%,4.5%,0,-5%
COc1ccc(Cl)cc1C(=O)Nn1cnc2ccccc2c1=O,2%,-5.7%,4,-9%
O=C(COc1cc2oc(=O)cc(-c3ccccc3)c2cc1Cl)NCCN1CCOCC1,31%,-0.9%,.,-10%
COc1ccc(S(=O)(=O)N2CCCC(C(=O)NC3CC3)C2)cc1Cl (stereo not given),-7%,1.1%,.,-3%
CCCn1c2ccccc2c2nnc(SCC(=O)OC)nc21,-8%,-2.8%,7,0%
O=c1[nH]c(CCC2CCCC2)nc2ccccc12,-18%,-0.1%,1,-36%
COc1ccccc1CNC(=O)COC(=O)c1ccc(-n2cnnn2)cc1,-1%,-1.6%,.,.
O=C(OCC#CCSc1nnc(-c2ccc([N+](=O)[O-])cc2)o1)c1cccs1,24%,1.0%,-2,1%
COc1ccccc1S(=O)(=O)Cc1ccc(C(=O)N2CCN(c3cccc(Cl)c3)CC2)o1,-1%,0.1%,4,?
NC(=O)COC(=O)c1cccc(S(=O)(=O)N2CCN(c3ccccc3)CC2)c1,-3%,4.0%,-2,0%
CSCCC(NC(=O)c1ccccc1)C(=O)NC1CCCC1 (stereo not given),-6%,4.2%,-11,-12%
Cc1cc(C(=O)Nc2ccc3c(c2)OCO3)cs1,19%,0.2%,-5,-33%
O=C(Nc1ccccc1Cl)c1ccccc1,20%,1.0%,3,-46%
NC(=O)CC(NC(=O)Cc1ccc(Cl)cc1)c1ccc(NC2CCCCCC2)c([N+](=O)[O-])c1 (stereo not given),30%,-0.6%,.,-16%
ClC(Cl)(Cl)c1nc(N/N=C/c2ccncc2)c2ccccc2n1,40%,-1.3%,-1,0%
Cc1cc(C)nc(N/N=C2/CCSc3ccc(F)cc32)n1,8%,?,.,-7%
O=C1CCCC2=C1CC(C(=O)OCc1ccccc1)C(=O)N2Cc1ccccc1 (stereo not given),6%,-7.0%,.,.
COc1ccc(N2CCN(C(CNC(=O)C(=O)NCC3CCCO3)c3ccco3)CC2)cc1 (stereo not given),3%,-0.3%,8,-2%
Cc1ccc(OC(C)C(=O)Nc2ccc3c(c2)n(C)c(=O)n3C)cc1C (stereo not given),1%,1.8%,.,-10%
CN(Cc1ccccc1F)c1nc(-c2cccnc2)nc2ccccc12,-9%,-0.6%,.,-5%
Cc1ccc(Cl)cc1NC(=O)N[C@@H](CC(C)C)C(=O)O,2%,-0.9%,-4,5%
O=C1CN(C(=O)c2cccc(F)c2)C(c2ccc(F)cc2)c2cc(F)ccc2N1 (stereo not given),-9%,3.1%,.,6%
Cc1ccccc1Cn1c(=O)n(Cc2ccco2)c(=O)c2ccccc21,-15%,4.0%,0,-6%

# An excerpt from above in order of number of heavy atoms, highest first:
SMILES,Rango release inh,Rango complex inh,GLA inh pH 4.5,miR-21 FLuc
COc1ccc(N2CCN(C(CNC(=O)C(=O)NCC3CCCO3)c3ccco3)CC2)cc1 (stereo not given),3%,-0.3%,8,-2%
O=C(OCC#CCSc1nnc(-c2ccc([N+](=O)[O-])cc2)o1)c1cccs1,24%,1.0%,-2,1%
ClC(Cl)(Cl)c1nc(N/N=C/c2ccncc2)c2ccccc2n1,40%,-1.3%,-1,0%
CCCn1c2ccccc2c2nnc(SCC(=O)OC)nc21,-8%,-2.8%,7,0%
Cc1cc(C)nc(N/N=C2/CCSc3ccc(F)cc32)n1,8%,?,.,-7%
O=c1[nH]c(CCC2CCCC2)nc2ccccc12,-18%,-0.1%,1,-36%

# Further structures.
SMILES,Rango release inh,Rango complex inh,GLA inh pH 4.5,miR-21 FLuc
CC(=O)N1Cc2ccccc2CC1C(=O)OCC(=O)c1c(N)n(C)c(=O)n(C)c1=O (stereo not given),24%,0.3%,.,.
COCCNC(=O)CN(C(=O)CCC(=O)Nc1ccccn1)c1ccc(F)c(Cl)c1,.,.,9,-8%
CCOC(=O)C1=C(O)/C(=C/c2ccc(OCC(=O)O)c(OCC)c2)SC1=Nc1ccccc1,?,?,-9,1%
O=C(CCN1C(=O)c2ccccc2C1=O)NCCCn1ccnc1,-3%,-0.1%,2,2%
O=S(=O)(Nc1cccc(S(=O)(=O)N2CCCC2)c1)c1ccc(Cl)cc1,31%,-0.3%,.,.
O=C(c1ccc2c(c1)OCO2)N1CCN(S(=O)(=O)c2ccccc2)CC1,-20%,-0.4%,.,-6%
CCOC(=O)c1[nH]c(=S)[nH]c1C,-15%,0.3%,.,.
COc1cccc(N2C(=NC(=O)CCc3ccccc3)SC3CS(=O)(=O)CC32)c1 (stereo not given),6%,-0.1%,.,-7%
CC(C)c1ccc(NC(=O)N2CCC(c3nc4ccccc4o3)CC2)cc1,2%,0.0%,-5,8%
O=[N+]([O-])c1ccc(NN=Cc2ccccc2O)nc1,?,?,.,.
COC(=O)[C@@H](NC(=O)Nc1ccc(C(C)=O)cc1)C(C)C,-21%,3.7%,-3,-2%
CCOc1ccccc1N1CCN(C(=O)c2c(CC)noc2C)CC1,15%,-1.6%,.,.
O=C(c1ccccc1)N1CCC(=O)N1c1ccccc1,3%,0.1%,-3,-2%
CCCCOc1ccc(NC(=O)C2CC=CCC2C(=O)O)cc1 (stereo not given),16%,0.2%,-12,-17%
COc1ccc(NC(=O)CS(=O)CC(=O)NCC2OCCc3ccccc32)cc1 (stereo not given),0%,-1.8%,4,1%
Cc1nn(-c2ccccc2)c(C)c1/C=N/NC(=O)c1ccccc1NS(=O)(=O)c1cccs1,-9%,-8.4%,-4,-18%
O=C1c2ccccc2C(=O)N1C/C=C/CN1C(=O)c2ccccc2C1=O,.,.,-1,-12%
CC(C)C[C@H](NC(=O)c1nc[nH]c1C(=O)N1CCNCC1)C(=O)OC(C)(C)C,-3%,3.7%,.,.
CCOCCCn1c(=S)[nH]c2cc(C(=O)NCCc3ccc(OC)c(OC)c3)ccc2c1=O,-10%,-2.2%,.,1%
O=C(/C=C/c1ccc(S(=O)(=O)N2CCOCC2)cc1)NCc1ccccc1F,7%,0.5%,.,.
CC12CC(c3ccccc3O1)C(C(=O)N1CCOCC1)C(=O)N2 (stereo not given),-16%,0.9%,2,-4%
O=P(O)(CN1CCCCCC1)CN1CCCCCC1,.,.,-3,-9%
Cc1cc(C)c(C)c(S(=O)(=O)N[C@@H](C)C(=O)OCC(N)=O)c1C,5%,4.1%,-2,4%
Cc1nc2sc(C(=O)OCC(=O)N3c4ccccc4CC3C)c(C)c2c(=O)[nH]1 (stereo not given),0%,-6.6%,-4,-5%
O=C(Cc1cccc(NC(=O)C2CCN(C(=O)C3CC3)CC2)c1)Nc1cccc(C(=O)N2CCCCC2)c1,16%,1.5%,.,.

# Complete entries as entered above. Values in the order: Rango release inh	Rango complex inh	GLA inh pH 4.5	miR-21 FLuc
# CC(C)C[C@H](NC(=O)c1nc[nH]c1C(=O)N1CCNCC1)C(=O)OC(C)(C)C is listed as -3%	3.7%	.	.
# COCCNC(=O)CN(C(=O)CCC(=O)Nc1ccccn1)c1ccc(F)c(Cl)c1 is listed as .	.	9	-8%

# (list continues)
SMILES,Rango release inh,Rango complex inh,GLA inh pH 4.5,miR-21 FLuc
COc1ccc(C(=O)NCCCn2ccnc2)cc1[N+](=O)[O-],12%,5.4%,4,5%
Cc1[nH]c(C)c(S(=O)(=O)N2CCCCC2C)c1C(=O)N1CCCC1 (stereo not given),-10%,-1.0%,.,-3%
Cc1ccc(CN(c2ccc(C(=O)Nc3ccc4c(c3)OCO4)cc2)S(C)(=O)=O)cc1,-7%,-0.1%,-6,-1%
CC(=O)Nc1ccc(NC(=O)CCCSc2nc3ccccc3s2)cc1,6%,-1.7%,0,-7%
O=C(NC1CCCC1)c1cc(COc2ccc3ncccc3c2)on1,1%,-0.2%,-5,22%
Cc1ccc(NC(=O)CN2C(=O)N/C(=C\c3ccco3)C2=O)cc1,-5%,?,.,.
COc1ccc(CCNC(=O)CCC(=O)N2CCN(S(=O)(=O)c3ccc(Cl)cc3)CC2)cc1OC,3%,0.6%,2,1%
COc1ccc(Cc2nc(-c3ccccn3)no2)cc1OC,4%,-3.8%,7,-42%
O=C1N/C(=C/c2ccc(Br)s2)C(=O)N1c1ccccc1,-24%,?,2,-27%
Cc1nc(Cl)c(C(=O)NC(=O)Nc2cccc(C(F)(F)F)c2)c(C)c1[N+](=O)[O-],10%,2.0%,-3,-5%
c1ccc(-c2cc(NCCN3CCCCC3)c3ccccc3n2)cc1,4%,1.8%,.,30%
O=C(O)c1cc2nccc(-c3ccc(F)cc3)n2n1,23%,4.1%,-2,-1%
CC/C(O)=N\S(=O)(=O)c1ccc(N=NN(C)C)cc1,14%,-0.8%,-17,0%
O=C1N=c2ccc(Br)cc2=C1c1sc(=S)n(NS(=O)(=O)c2ccccc2)c1O,5%,-0.1%,-1,-7%
Cc1cc2n(n1)C(c1ccc(O)cc1)Nc1ccccc1-2 (stereo not given),12%,-3.4%,1,-1%
COc1cc2[nH]c(=O)n(CCCCCC(=O)N3CCN(c4ccccc4)CC3)c(=O)c2cc1OC,15%,-0.3%,1,5%
COc1cccc(C(=O)CSc2nnc(-c3cc(OC)c(OC)c(OC)c3)o2)c1,1%,3.7%,-4,4%
Cc1onc(-c2ccccc2)c1C(=O)/C=C/N(C)C,-6%,?,-6,-1%
COc1ccc(N(CC(=O)NCc2ccc(C)cc2)S(=O)(=O)c2c(C)noc2C)cc1,3%,0.2%,.,-1%
CC1CC(C)CN(S(=O)(=O)c2ccc(NC(=O)CN3CCCCCC3)cc2)C1 (stereo not given),6%,-4.3%,.,.
O=S(=O)(c1ccccc1)N1CCn2c(nc3ccccc32)C1,13%,-1.3%,-1,-2%
COc1cccc(-c2nc(NCc3ccco3)c3ccccc3n2)c1O,-4%,1.0%,5,-10%
CSCCC1COC(c2cccs2)=N1 (stereo not given),29%,1.0%,5,-6%
COc1ccc2[nH]c3c(=O)n(Cc4ccco4)cnc3c2c1,-9%,?,-5,-16%
Cc1ccc(CN(C)C(=O)CCNS(=O)(=O)c2ccccc2)o1,8%,-2.0%,.,.
# Additional entries.
SMILES,Rango release inh,Rango complex inh,GLA inh pH 4.5,miR-21 FLuc
COc1ccc(S(=O)(=O)N(C)c2ccc(C(=O)N3CCCC3)cc2)cc1OC,6%,0.5%,.,-6%
CCCCc1ccc(-c2csc(/C(C#N)=C/c3ccc(C)o3)n2)cc1,?,?,2,-8%
Cc1ccc(C(=O)N(Cc2ccccc2)C(C)(C)C)cc1C,-10%,-1.2%,4,-1%
CC(=O)C1=C(O)C(=O)N(CCO)C1c1ccccc1 (stereo not given),1%,1.5%,6,-6%
CCc1nnc(NS(=O)(=O)c2ccc(NC(=O)c3cc4ccccc4oc3=O)cc2)s1,.,.,-23,-5%
COC(=O)c1ccc(C(=O)OC)c(NC(=O)C(C)C)c1,?,6.5%,.,-8%
Cc1ccccc1C(=O)NC[C@@H]1CCCN2CCCC[C@H]12,6%,-1.6%,.,-1%
O=C(Nc1cccc(Cl)c1)N1CCN(c2ncccn2)CC1,1%,0.9%,-14,-22%
CCOC(=O)c1sc2nc(C)nc(N3CCCCC3C)c2c1C (stereo not given),2%,-0.6%,-7,-14%
CCc1ccc(NS(=O)(=O)c2c(C)noc2C)cc1,0%,0.9%,.,2%
Nc1c(C(=O)Nc2ccc3c(c2)OCCO3)nnn1Cc1ccc(Cl)cc1,7%,-2.3%,.,.
Cn1cc(CN2CCc3c([nH]c4ccccc34)C2C2CCCCC2)cn1 (stereo not given),0%,-3.8%,-12,-2%
CCn1nccc1C(=O)Nc1nc2ccccc2n1CCN1CCCCC1,?,?,1,-6%
CCN1C(=O)c2ccccc2S(=O)c2ccc(C(=O)NCc3ccc(OC)cc3)cc21 (stereo not given),2%,-2.3%,.,-7%&-3%
COCCN(C(=O)c1ccc(-c2ccc(Cl)cc2)o1)c1c(N)n(CC(C)C)c(=O)[nH]c1=O,-4%,-1.8%,.,.
c1ccc(N2OCC3Cn4c(nc5ccccc54)C32)cc1 (stereo not given),-6%,-1.3%,1,-31%
CC(=O)c1cccc(NC(=O)C2CCN(S(C)(=O)=O)CC2)c1,-1%,2.3%,4,-7%
